Calb biofilm kill = mixtures killing C. albicans biofilm | C. albicans biofilm persisters + clotrimazole, fluorescence viability; primary screen in compound mixtures of four per well | inhibition, % at 7.6 µM | actives 0.02% (n = 120,000);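 active = inhibition above 30.3% in the primary screen of four-compound pools, then above 30% when the compound was retested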;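 also: compounds exposed to preformed 24 h biofilms for 48 h; the number belongs to the whole pool; some results filed as inactive read as strong as hits; inactives centre near 12; 0% = biofilm with clotrimazole alone and 100% = kill control; retested singly at about 60 µM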
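Test system: C. albicans biofilms. Buffer or medium: RPMI/MOPS medium, pH 7.0. Timing: 48 h compound exposure at 37 °C. Technique: Alamar Blue fluorescence. Evaluation: percent inhibition of biofilm viability.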
Numbers without * were called inactive.

SMILES	Calb biofilm kill
COc1ccc2o/c(=N\O)c(C(=O)Nc3ccc(C)cc3)cc2c1	6
COc1ccc(-c2csc(C)n2)cc1	13
COc1cccc(-c2nnc(SCN3C(=O)c4ccccc4C3=O)n2C)c1	15
COc1ccc(NC(=O)c2nn(C)c(=O)c3ccccc23)cc1S(=O)(=O)Nc1ccccc1Cl	12
CCOC(=O)Cn1nc(C)c(NC(=O)c2ccc(Cl)c([N+](=O)[O-])c2)c1C	18
NS(=O)(=O)c1ccc(CCNC(=O)CSc2nnc3ccccn23)cc1	10
Cc1ccc(OCCNC(=O)/C=C/c2ccco2)cc1C	12
O=C(c1ccc(-c2cc3ccccc3oc2=O)cc1)N1CCN(c2ccc(Cl)cc2[N+](=O)[O-])CC1	7
N#Cc1cccn1-c1nccc(-c2cccs2)n1	14
O=C(O)CCCNc1ccc([N+](=O)[O-])c(NCCCC(=O)O)n1	12
CC(C)CC(C(=O)OCC(=O)Nc1cccc(Cl)c1)N1C(=O)C2CC=CCC2C1=O (stereo not drawn)	13
Cc1cccc(Cc2nnc(CCC(=O)N3CCCCC3c3nccs3)o2)c1 (stereo not drawn)	12
Cc1cc(=O)[nH]c(NN=C2CCC(C(C)(C)C)CC2)n1 (stereo not drawn)	20
CCOC(=O)C1CCCN(C(=O)c2cc3ccccc3oc2=O)C1 (stereo not drawn)	9
Cc1ccccc1C(=O)Nc1cc(-c2cc(C(C)(C)C)oc2C)nn1C	6
Oc1ccc(-c2cn3ccccc3n2)cc1	16
CC1(C)[C@@H](O)CC[C@]2(C)[C@H]3C(=O)C=C4[C@@H]5C[C@@](C)(C(=O)O)CC[C@]5(C)CC[C@@]4(C)[C@]3(C)CC[C@@H]12	12
O=C(CNC(=O)c1ccc(S(=O)(=O)N2CCCCC2)cc1)N/N=C/c1ccco1	13
CC(=O)CSc1ncnc2scc(-c3ccc(F)cc3)c12	6
Cc1cccc(NC(=S)NCCc2ccc(F)cc2)c1C	13
CCOc1ccccc1NC(=O)COC(=O)C(CC)c1ccccc1 (stereo not drawn)	18
CN(C)c1ncc(CN2CCC(CO)(CCCc3ccccc3)CC2)s1	28
COC(=O)c1c(C(=O)OC)c(-c2ccc(Cl)cc2)n2c1CS(=O)(=O)C2	19
Cc1cc(C(=O)NCC23CC4CC(CC(C4)C2)C3)c(C)o1	7
COc1ccccc1-c1cn(C(C)(C)C)nc1C	10
COC(=O)c1ccc(OCC(=O)c2ccc(C)c(C)c2)cc1	11
CCc1c(C(=O)NNC(=S)NCC2CCCO2)csc1C (stereo not drawn)	12
CCCCNc1c(NC(C)=O)c(=O)oc2ccccc12	21
CCOc1ccc(/C(CCC(=O)O)=N/NC(=S)NCCc2ccccc2)cc1	8
O=C(CN1CCN(Cc2ccccc2F)C1=O)NCC1CCCO1 (stereo not drawn)	23
O=C(Cc1csc(-c2ccccc2)n1)NCc1ccco1	9
O=c1c2ccc([N+](=O)[O-])cc2ncn1Cc1ccccc1C(F)(F)F	8
CCc1c(C(=O)NN2C(=O)C3CCCCC3C2=O)csc1C (stereo not drawn)	3
CN1/C(=C\C(=O)C[n+]2cccc(Br)c2)C(C)(C)c2ccccc21	7
CCc1cc2c(N3CCN(C(=O)c4ccco4)CC3)ncnc2s1	27
O=C(CSC(=S)N1CCSCC1)c1ccccc1	11
NC(=O)N/N=C/c1cn(-c2ccccc2)nc1-c1ccccc1	5
CC(C)(C)N(NC(=O)OCc1ccccc1)C(=O)c1ccccc1	4
COc1cc(NC(=S)N2CCN(C(=O)c3ccco3)CC2)c(OC)cc1Cl	8
Cc1ccccc1C(=O)NCCCc1ccccc1	8
NC(=O)C1(C(N)=O)OC1c1ccc(Cl)c(Cl)c1 (stereo not drawn)	-1
COc1ccc(C(=O)N(CC2CCCO2)C(C(=O)NCCC(C)C)c2ccc(C)cc2)cc1OC (stereo not drawn)	15
O=C(O)c1cccc(-n2cccc2/C=C2/NC(=O)N(c3cccc(Cl)c3)C2=O)c1	1
CC(C)NC(=O)c1ccc(-n2nc(C(F)(F)F)c3c2CCCC3)cc1	3
Cc1cccc(/C=C\c2nc3ccccc3c(=O)[nH]2)c1	4
O=C(CSCc1c(F)cccc1Cl)NCc1cccnc1	22
O=C(Oc1cc(Cl)ccc1Cl)c1ccc(N2CCOCC2)c([N+](=O)[O-])c1	14
CSC(=O)NC(=O)NC(=O)c1ccc([N+](=O)[O-])cc1	12
O=C(NCc1ccccc1)C(=O)Nc1cccc(C(=O)O)c1	5
CC1(C)C(=O)OC(c2cccn2-c2cccc([N+](=O)[O-])c2)C2(CCCCC2)C1=O (stereo not drawn)	2
CC(C)c1nc2c(c(=O)c3ccccc3n2C)c(=O)n1CCc1ccccc1	15
CCCN(CCC)CCNC(=O)c1cc2c(=O)n(CC)c3ccccc3c2s1	12
Cc1ccc2nc(SCC(=O)Nc3ncccn3)[nH]c2c1	-1
Cc1[nH]n(-c2ccc(F)cc2)c(=O)c1C=Nc1ccc(S(=O)(=O)N(C)C)cc1	6
O=C(CCNc1ccc(Cl)cc1)c1cccs1	5
Cc1cc(C)c(C)c(C(=O)CSc2nnc(-c3ccc4[nH]c(C)c(C)c4c3)o2)c1C	14
CCOC(=O)c1cn(Cc2ccccc2)c2cc(C)nn2c1=O	16
COc1ccc(-c2nn(CCC(=O)O)cc2/C=C2\SC(N)=NC2=O)cc1OC	0
CC1CCCCN1CC(=O)Nc1ccc2c(c1)OC(F)(F)O2 (stereo not drawn)	9
CC(C)(C)N(CC#CCC(O)(c1ccccc1)C1CCCC1)CCO (stereo not drawn)	10

Of the compounds above, these have a CF3 group:
SMILES	Calb biofilm kill
O=c1c2ccc([N+](=O)[O-])cc2ncn1Cc1ccccc1C(F)(F)F	8
CC(C)NC(=O)c1ccc(-n2nc(C(F)(F)F)c3c2CCCC3)cc1	3

(more compounds)
SMILES	Calb biofilm kill
Cc1ccc(C(=O)NC2(O)C(=O)c3ccccc3C2=O)cc1C	29
COc1ccc(C2/C=C\CN(C(=O)NC34CC5CC(CC(C5)C3)C4)CC(=O)N2Cc2ccc(F)cc2)cc1 (stereo not drawn)	16
COc1ccc(CNCCc2ccc(Cl)cc2)cc1OCc1ccccc1	14
CC(C)CNc1c(N)n(CC(C)C)c(=O)[nH]c1=O	17
NNC(=O)c1ccc(CSc2nc3ccccc3s2)cc1	11
CCn1c(COc2ccc(C)cc2)nnc1SCC(=O)NNC(=O)c1ccc(OC)cc1	9
O/N=C/c1ccc(-c2ccccc2OC(F)(F)F)o1	16
NS(=O)(=O)c1ccc(CCNC(=O)CN2CCC(Cc3ccccc3)CC2)cc1	10
CC(C(=O)Nc1ccccc1Cl)N(c1ccccc1)S(C)(=O)=O (stereo not drawn)	1
Cc1cc(C)n2nc(SCCOc3ccccc3F)nc2n1	6
CCc1ccc2c(c1)C1(NN=C(c3ccccc3)S1)C(=O)N2 (stereo not drawn)	10
O=C(N/N=C/c1ccc(F)cc1)c1c(O)c2ccccc2[nH]c1=O	28
Oc1ccc(C(=S)N2CCN(c3cccc(Cl)c3)CC2)cc1	13
COc1cccc(OC)c1C(=O)NC(=O)Nc1c(F)c(F)c(F)c(F)c1F	9
O=C(NCc1cccc(Cl)c1)c1ccc2nc[nH]c2c1	10
CC(=O)Nc1cc(C(=O)N(C)Cc2ccco2)ccc1Sc1ccc(Cl)cc1	21
Cc1cc(C)c(S(C)(=O)=O)c(=O)[nH]1	-1
Cc1nnc(SCC(=O)NC23CC4CC(CC(C4)C2)C3)s1	9
CC(=O)c1ccc(N2Cc3ccccc3C2=NC(=O)c2cccs2)cc1	23
COc1cccc(OCC(=O)O)c1	19
COc1ccc(-c2[nH]ncc2CN2CCN(c3ccc(F)cc3)CC2)cc1	8
CC(OC(=O)CC1CC2CCC1C2)C(=O)Nc1ccc(N2CCOCC2)cc1 (stereo not drawn)	7
COC(=O)c1ccccc1C(=O)c1ccc2c(c1)NC(=O)CO2	-9
Cc1cc(N2CCN(C)CC2)nc2ccc(NC(=S)NCc3cccs3)cc12	8
CC(C)(C)C(=O)CSc1ncccn1	-5
CS(=O)(=O)c1cnc2c(S(=O)(=O)c3ccccc3)cnn2c1N	-5
Cc1cc(C)nc(/N=C(\N)Nc2ccc(SC(F)F)cc2)n1	14
CCOC(=O)C1=C(CC)Nc2ccccc2N=C1NC(=O)c1ccc(S(=O)(=O)N2CCOCC2)cc1	9
COc1ccc(C2CC(=O)C=C(NC3CCCC3)C2)cc1 (stereo not drawn)	7
CC1CN(/C(=N\S(=O)(=O)c2ccccc2)c2ccccc2)CC(C)O1 (stereo not drawn)	15
Cc1ccc(S(=O)(=O)N(Cc2cc3ccc(C)cc3[nH]c2=O)c2ccccc2)cc1	28
CCn1nc(C)c(/C=N/NC(=O)CSc2ccccn2)c1C	26
CCOC(=O)c1csc(NC(=O)Nc2cccc(OC)c2)n1	9
CCOC(=O)c1c(-c2cccs2)csc1NC(C)=O	12
O=C(O)CCN1C(=O)/C(=C/c2cn(-c3ccccc3)nc2-c2cccs2)SC1=S	-4
O=c1c(CN2CCN(c3ccccn3)CC2)coc2ccccc12	-6

Entries listed so far that have an aryl methoxy group (16):
SMILES	Calb biofilm kill
COc1ccc2o/c(=N\O)c(C(=O)Nc3ccc(C)cc3)cc2c1	6
COc1ccc(-c2csc(C)n2)cc1	13
COc1cccc(-c2nnc(SCN3C(=O)c4ccccc4C3=O)n2C)c1	15
COc1ccc(NC(=O)c2nn(C)c(=O)c3ccccc23)cc1S(=O)(=O)Nc1ccccc1Cl	12
COc1ccccc1-c1cn(C(C)(C)C)nc1C	10
COc1cc(NC(=S)N2CCN(C(=O)c3ccco3)CC2)c(OC)cc1Cl	8
COc1ccc(C(=O)N(CC2CCCO2)C(C(=O)NCCC(C)C)c2ccc(C)cc2)cc1OC (stereo not drawn)	15
COc1ccc(-c2nn(CCC(=O)O)cc2/C=C2\SC(N)=NC2=O)cc1OC	0
COc1ccc(C2/C=C\CN(C(=O)NC34CC5CC(CC(C5)C3)C4)CC(=O)N2Cc2ccc(F)cc2)cc1 (stereo not drawn)	16
COc1ccc(CNCCc2ccc(Cl)cc2)cc1OCc1ccccc1	14
CCn1c(COc2ccc(C)cc2)nnc1SCC(=O)NNC(=O)c1ccc(OC)cc1	9
COc1cccc(OC)c1C(=O)NC(=O)Nc1c(F)c(F)c(F)c(F)c1F	9
COc1cccc(OCC(=O)O)c1	19
COc1ccc(-c2[nH]ncc2CN2CCN(c3ccc(F)cc3)CC2)cc1	8
COc1ccc(C2CC(=O)C=C(NC3CCCC3)C2)cc1 (stereo not drawn)	7
CCOC(=O)c1csc(NC(=O)Nc2cccc(OC)c2)n1	9

Remaining list, next part:
SMILES	Calb biofilm kill
Cc1ccc(NC(=O)c2ccc3c(c2)[nH]c(=O)n3C(C)C)cc1	19
CCCn1nnc(NC(=O)/C=C/c2cc(Br)ccc2OC)n1	6
COc1ccc(CC(=O)Nc2nnc(C(C)(C)C)s2)cc1OC	10
FC(F)(F)Oc1ccc(NC(=S)NCCCN2CCOCC2)cc1	13
CCN(CCO)Cc1csc2ccc(C(C)(C)C)cc12	-9
CCn1ccnc1CN(C)Cc1nc(-c2ccccc2)no1	7
COc1ccc(C)cc1S(=O)(=O)N(C)CC(=O)NC1CCCC1	16
COc1ccc(NC(=O)Nc2nnc(CC(=O)Nc3ccccc3)s2)cc1	17
O=C(NCCN1CCC(Cc2ccccc2)CC1)C1CCN(S(=O)(=O)N2CCC3(CC2)OCCO3)CC1	1
CCCCC(=O)NC(NC(=O)CCCC)c1ccc(OCC(C)C)c(OC)c1	9
Cc1ccc(N/C=C(\C#N)S(=O)(=O)c2ccccc2)cc1	1
O=C(c1ccccc1)N1N=C(c2ccccc2)CC1c1ccc2nccnc2c1 (stereo not drawn)	5
COC(=O)c1[nH]c2cc(OC)ccc2c1NC(=O)c1c(F)cccc1F	21
CCOC(=O)N1CCN(C(=O)COc2cccc3c2CCN(Cc2cccc(C)c2)C3=O)CC1	11
O=C(O)C1CC=CCC1C(=O)Nc1ccccc1C(=O)N1CCN(c2ccc(Cl)cc2)CC1 (stereo not drawn)	8
Cc1ccccc1Oc1cc(NC(=O)Cn2cnc([N+](=O)[O-])c2)cc([N+](=O)[O-])c1	6
Cc1cc(C)n(-c2ccc(C(=O)Nc3cccc(S(=O)(=O)N(C)C)c3)cc2)n1	9
CN(Cc1ccc(F)cc1)C(=O)c1cccc(OC2CCN(C3CCCC3)CC2)c1	16
C=CCn1c(C)cc(C(=O)COC(=O)[C@@H](NC(=O)c2ccccc2Cl)C(C)C)c1C	18
Nc1nc2ncc(C(=O)c3cc(F)ccc3O)cc2s1	20
CC(C)OC(=O)CSc1nnc(COc2ccc([N+](=O)[O-])cc2)n1C	-2
O=C1c2cccnc2C(Nc2ccc(F)c(Cl)c2)N1Cc1cccs1 (stereo not drawn)	18
COc1ccc(C(=O)NCC(=O)OCc2ccc(F)cc2)cc1	7
CC(C)(C)C1CCC(OCC(O)CN2CCN(c3ccccn3)CC2)CC1 (stereo not drawn)	1
COc1cccc(-n2c(=O)n(Cc3ccccc3)c(=O)c3[nH]cnc32)c1C	12
O=C(Nc1ccc(S(=O)(=O)Nc2ccccn2)cc1)C(F)(F)F	13
Cc1ccc(Nc2n[nH]c(C)c2[N+](=O)[O-])c(C)c1	19
Cc1ccc(CNC(=O)C2CC(=O)N(CCC(C)C)C2)cc1 (stereo not drawn)	15
O=C(NC1CC1)c1sc2cc([N+](=O)[O-])ccc2c1Cl	17
CC(CC(C)C(=O)Nc1ccccc1C(C)(C)C)C(=O)O (stereo not drawn)	13
Cc1ccc(-n2c(N)c(S(=O)(=O)c3ccccc3)c3nc4ccccc4nc32)cc1	18
O=C(c1ccccc1)c1cccs1	8
Cc1nc2ncnn2c(C)c1C/C=C/c1ccccc1	9
Cc1ccc(C(=O)CSc2nnnn2Cc2ccccc2)cc1C	14

Only part of the results is shown; rates above refer to the full screens.
